BJeLR lethal: kills HRASV12-expressing BJeLR cells. BJeLR (HRASV12) viability, CellTiter-Glo ATP luminescence, 48 h; reference of the scale not given here. inhibition, % (no concentration beside the values). 300,000 compounds, 0.17% hits;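 active means replicate mean above 50%; inconclusive means above 50% but judged a plate artefact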;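 further: 50 nL library stock added to about 25 µL; numbers are from one replicate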
Bead autofluor: flagged as autofluorescent in microsphere protease counterscreen. compound autofluorescence counterscreen, microsphere flow cytometry; hits give high values. fluorescence intensity (test concentration not listed). 360,000 compounds, 3.1% hits;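 active means at least 3 SD above the mean of all compounds, about 16000 in these data; inconclusive means too few beads counted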;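 further: 100 nL of 1 mM stock went into each well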
Mtb hypoxia inh: inhibitors of hypoxia-regulated fluorescent reporter in Mycobacterium tuberculosis | 300,000 compounds, 0.1% hits | fluorescence inhibition, % (no concentration beside the values) | M. tuberculosis hypoxia-regulated fluorescent reporter, fluorescence | AID 1159583;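 active means 35 to 45% if threefold the growth effect, above 45% if 1.5-fold the growth effect; inactive means the rest, general growth blockers included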;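 further: wells of about 50 µL received 100 nL stock; 0% = vehicle wells and 100% = reference inhibitor wells; whole bacteria with a GFP reporter of the hypoxia response; strong numbers were not always called active; many hits fall short of the cut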
Sa RN4220 lethal: kills Staphylococcus aureus RN4220 | S. aureus RN4220 growth, OD600, 16 h | inhibition, % (test concentration not listed) | 330,000 compounds, 0.33% hits | AID 1259311;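 active means z-score of -3 or lower and OD600 up to 0.18 on both plates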;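 further: plate controls were untreated cells for no effect and reference antibiotic for full effect; stock transfer was 100 nL into about 80 µL; one replicate is shown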
PrP 5UTR inh: inhibition of PrP 5' UTR reporter expression; cell-based PrP 5' UTR mRNA reporter, plate reader; inhibition, % (concentration not given with the values); 340,000 compounds, 0.35% hits;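 active means every replicate at 50% or more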;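 further: 0 = median of the neutral control wells; tested in H4 reporter cells; numbers are from one replicate; inactives centre near -14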
Sa ugtP lethal: compounds lethal to S. aureus RN4220 ugtP deletion mutant | growth inhibition, % (test concentration not listed) | OD600 growth, 16 h; some inactives read as strong as hits | 330,000 compounds, 0.54% hits;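 active means z-score under -3 and OD600 up to 0.15 on both plates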;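 further: plate controls were untreated wells for no effect and antibiotic for full effect; wells of about 80 µL received 100 nL stock; the first replicate is given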
Mtb hypoxia inh growth: also measured in Mtb hypoxia inh; calls as there; growth inhibition, %; measured here: M. tuberculosis growth (absorbance);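 0% = vehicle and 100% = reference antibiotic; read after six days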
* hit, by the source's call; u = inconclusive; x = not tested or not shown.

SMILES	BJeLR lethal	Bead autofluor	Mtb hypoxia inh	Mtb hypoxia inh growth	Sa RN4220 lethal	PrP 5UTR inh	Sa ugtP lethal
O=C(O)CC12CC3CC(C1)CC(n1ncc(NCc4ccco4)c(Cl)c1=O)(C3)C2	3	4350	14	6	2.8	-14	-1
S=C(NCCc1ccccc1)Nc1ccc(N2CCCCC2)cc1	1	3194	3	10	-0.2	-15	12
O=C(NN=Cc1c(O)ccc2ccccc12)C1CC1	x	3056	8	5	73	18	90*
CC(=O)c1cc2c(cc1NC(=O)CSc1ccc(S(=O)(=O)N(C)C)cn1)OCO2	x	5695	0	5	7.2	11	4
O=C(Nc1ccncc1)c1cccc(S(=O)(=O)N2CCCC2)c1	0	5348	9	11	6.8	-13	4
CCN(CC)CC(O)CN(c1ccccc1)S(=O)(=O)c1ccc2ccccc2c1 (centres undefined)	-2	4166	8	-2	5.5	-11	11
O=C(Nc1ccccc1)C1=C[C@@H](C2CC2)C[C@@H](OCCCCO)O1	-5	3804	x	x	x	-33	x
CCN(CC)C(=O)c1sc(NC(=O)c2cc(-c3ccc(C)s3)nc3ccccc23)c(C(=O)OC)c1C	0	3401	4	5	4.0	0	0
Cc1cc(Nc2ccccc2)c2c([N+](=O)[O-])cc(C)c(C)c2n1	0	2190	x	x	5.5	-14	13
CCOC(=O)C1(CCOc2ccccc2)CCN(Cc2ccc3nonc3c2)CC1	5	4438	-2	5	-0.4	-10	-2
NC1=NCC(Cc2ccccc2)N1CCc1cccc(F)c1 (centres undefined)	x	x	17	10	6.3	x	-4
Cc1nn(-c2ccccc2)c(N2CCCC2)c1/C=N/NC(=O)c1cccc(S(=O)(=O)Nc2ccc(Cl)cc2)c1	20	7831	x	x	x	-6	x
CCOn1c(=O)c(-c2cccs2)[n+]([O-])c2ccccc21	-2	10827	2	5	0.5	-8	-17
CC(C)(C)c1ccc(OCCC(=O)NNC(=O)c2ccccc2)cc1	-6	4959	10	-5	4.9	-19	10
Cc1ccc(C(c2nnnn2C2CCCCC2)N2CCc3ccccc32)cc1 (centres undefined)	-1	2136	7	11	4.8	-22	-6
NNc1nc2cc3c(cc2s1)OCCO3	0	x	7	7	6.1	-16	-3
O=C(CCS(=O)(=O)c1ccc(Br)cc1)N1CCN(Cc2ccccc2)CC1	7	4679	x	x	-3.8	-10	-2
COc1ccc(OC)c(-c2csc(NC(=O)C3=NN(c4ccccc4)C(=O)CC3)n2)c1	-1	4270	-2	4	21	-15	18
CN(CCCNC(=O)c1cc2c(=O)[nH]c3ccccc3c2n1C)Cc1ccccc1	-2	6057	15	11	1.4	-13	6
O=C(c1cc(-c2ccncc2)nc2ccccc12)N1CCC2(CC1)OCCO2	-2	23092*	10	2	5.4	-12	2
COc1ccc(-c2nn(-c3ccccc3)cc2C=NNc2ccc3ccccc3n2)cc1OC	x	x	-18	-20	14	x	34
COc1ccccc1NC(=O)c1nn(-c2ccc(Cl)cc2)ccc1=O	-8	2619	x	x	0.9	-26	-7
COc1ccc(NC(=O)CNc2cc(C)ccc2C)cc1S(=O)(=O)N1CCOCC1	x	8749	3	4	2.1	-8	0
Cc1ccc(C)n1-c1ccc(C(=O)NN=Cc2ccncc2)cc1	x	x	-6	-13	-0.3	x	2
COc1ccc(OC)c(CN(CCCN2CCOCC2)S(=O)(=O)c2ccc(NC(C)=O)cc2)c1	2	3184	5	4	3.0	-5	8
Cc1cccc2c1cnn2C(=O)CCC(=O)N1CC(C)CC(C)C1 (centres undefined)	-8	5489	6	8	-9.5	-12	-9
COc1ccc(OCC(=O)Nc2cccc(NC(=O)c3ccco3)c2)cc1	-1	3790	2	12	2.1	-16	-10
O=C1CCc2cc(S(=O)(=O)N3CCCCC3)cc3c2N1CCC3	3	u	5	11	6.7	-15	11
COc1cc(/C=C2/C(=O)c3cccc([N+](=O)[O-])c3C2=O)c(Br)cc1O	x	1825	19	7	0.9	-9	0
CC1(C)OC(=O)C(=CNc2cccc(O)c2)C(=O)O1	1	7932	19	7	3.7	-28	-1
CC(=NNc1cc(N2CCOCC2)nc(C)n1)c1cccc([N+](=O)[O-])c1	x	x	1	11	4.5	x	3
O=C(NCc1ccc(F)cc1)C1CCCN1C(=O)Nc1ccc(F)cc1 (centres undefined)	-7	3918	8	3	1.8	-1	1
CCCn1c(CCc2ccccc2)nnc1SCC(=O)N1CCOCC1	4	4156	x	x	1.0	-13	-2
O=C(c1ccccc1F)N1CCN(c2ccccn2)CC1	6	2857	-8	2	5.0	9	3
Cc1ccc(S(=O)(=O)c2c(C)cc(C)nc2Cl)c(C)c1	4	22797*	0	2	1.5	-5	2
CN(Cc1ccc(F)cc1)C(=O)c1sccc1-c1ccccc1	-3	5185	19	6	11	-15	0
CCOc1ccc2oc(C(=O)N3CCN(Cc4ccccc4)CC3)c(C)c2c1	-6	2950	9	1	0.0	-21	32
CC(=O)OCC(OC(C)=O)C(OC(C)=O)C(OC(C)=O)C(=O)Nc1ccccc1 (centres undefined)	0	3472	-12	-14	1.7	2	0
CNc1ncnc(Sc2ccc(Cl)cc2)c1[N+](=O)[O-]	0	4519	4	-4	1.3	x	10
NC(=O)[C@@H]1CCCN1C(=O)[C@@H](Cc1cnc[nH]1)NC(=O)[C@@H]1CCC(=O)N1	x	4882	-4	-5	-5.4	4	-2
CC1(C)CC(=O)/C(=C(\O)c2ccccc2)C(=NCCO)C1	-1	8221	6	4	6.0	-29	10
Cc1cccc(N(Cc2ccccc2)C(=O)c2ccc(S(C)(=O)=O)cc2)c1	-2	8674	13	-2	8.5	-9	20
CCCn1nc(C(=O)NNC(=O)c2cc(S(=O)(=O)NC)ccc2Br)c2ccccc2c1=O	0	u	4	3	6.9	-7	11
Cn1c(-c2cccc([N+](=O)[O-])c2)cnc1NCc1ccc(C#N)cc1	-6	4070	-9	13	4.5	-60	-10
CC(C)N(C(=O)Cn1cc(SCC(N)=O)c2ccccc21)C(C)C	8	4191	11	0	1.3	-25	0
CCOC(=O)c1[nH]c2ccccc2c1NC(=O)C(C)(C)C	16	5372	5	7	7.0	-7	16
Cc1cc2oc(=O)cc(CN3CCN(Cc4ccccc4)CC3)c2cc1O	-2	3911	3	6	2.4	-19	5
O=C(CSc1ccc(S(=O)(=O)N2CCOCC2)cn1)Nc1ccc(OC(F)F)cc1	x	3800	12	3	6.3	-19	5
COc1ccc(S(=O)(=O)N2CCNC(=O)C2)cc1Br	-14	3185	7	-7	1.3	9	1
COc1cccc(N2CC(C(=O)Nc3nnc(SCC(=O)N4CCOCC4)s3)CC2=O)c1 (centres undefined)	2	5670	12	8	1.0	-7	5
C=COCCNC(=S)N1CCOCCOCCN(C(=S)NCCOC=C)CCOCCOCC1	1	3328	-4	-7	1.9	8	4
Cc1ccc(NC(=O)CN2C(=O)NC(C)(C3CC3)C2=O)c(C)c1 (centres undefined)	x	9017	-6	1	-0.1	-18	-1
O=C(Cc1nc2ccccc2[nH]1)c1cccc([N+](=O)[O-])c1	6	3520	x	x	x	-47	x
Cc1cc(C)n2c(SCC#N)nnc2n1	-2	6064	x	x	0.4	-6	-1
Nc1ccccc1C(=O)NC1CCCNC1=O (centres undefined)	7	4415	5	4	3.4	x	12
Cc1ccc(NC(=O)c2nccnc2C(=O)O)cc1C	-8	5544	6	6	2.4	-20	12
COc1cccc(-c2cc(C(=O)N3CCN(C(=O)c4ccco4)CC3)[nH]n2)c1	7	4561	12	10	3.7	-10	9
CC(=O)c1ccc(NC(=O)c2noc(C)c2[N+](=O)[O-])cc1	-1	6353	15	9	7.0	-16	3
COc1ccc(OCc2nnc(SCC(=O)N3CCOCC3)o2)cc1	1	2554	5	9	6.1	-16	3
CCOc1ccc(S(=O)(=O)NCCC(=O)N(CC)CC(=O)Nc2c(F)cccc2F)cc1	5	3983	-7	4	3.5	-17	4
(listing goes on)
SMILES	BJeLR lethal	Bead autofluor	Mtb hypoxia inh	Mtb hypoxia inh growth	Sa RN4220 lethal	PrP 5UTR inh	Sa ugtP lethal
Cc1c(C(=O)N2CCOCC2)c(S(=O)(=O)Nc2cccc(Br)c2)c(C)n1C	-4	5835	x	x	x	-9	x
CC(C)C(=O)O/N=C1\CCS(=O)(=O)c2sccc21	3	3191	x	x	x	2	x
O=C(c1ccccc1F)N1CCN(c2ccccc2)CC1	4	19300*	4	8	1.8	-24	5
Cc1ccc(NC(=O)c2ccc(Cl)c(S(=O)(=O)NCc3ccco3)c2)c(O)c1	x	4102	-7	8	3.9	-4	-3
CCN(CC(=O)Nc1ccccc1C(F)(F)F)C(=O)CN1C(=O)NC2(CCCCC2)C1=O	-3	6282	3	-6	1.1	-12	1
O=C(OCC(=O)c1ccc(Cl)s1)c1ccc(CO)cc1	3	u	0	-2	6.2	-11	2
CCCCCCC[n+]1ccc(-c2cc[n+](CCCCCCC)cc2)cc1	1	8012	81*	35*	7.7	-42	0
CN(CCO)C(=O)CCC(=O)Nc1ccc(S(N)(=O)=O)cc1	6	17212*	9	6	7.1	2	-6

Quoted from the listing:
For Mtb hypoxia inh, `O=C(OCC(=O)c1ccc(Cl)s1)c1ccc(CO)cc1` is entered as 0
For Sa ugtP lethal, `Cc1ccc(NC(=O)c2ccc(Cl)c(S(=O)(=O)NCc3ccco3)c2)c(O)c1` is entered as -3

Structural class: the compounds so far containing four or more nitrogen atoms.
SMILES	BJeLR lethal	Bead autofluor	Mtb hypoxia inh	Mtb hypoxia inh growth	Sa RN4220 lethal	PrP 5UTR inh	Sa ugtP lethal
Cc1nn(-c2ccccc2)c(N2CCCC2)c1/C=N/NC(=O)c1cccc(S(=O)(=O)Nc2ccc(Cl)cc2)c1	20	7831	x	x	x	-6	x
Cc1ccc(C(c2nnnn2C2CCCCC2)N2CCc3ccccc32)cc1 (centres undefined)	-1	2136	7	11	4.8	-22	-6
COc1ccc(OC)c(-c2csc(NC(=O)C3=NN(c4ccccc4)C(=O)CC3)n2)c1	-1	4270	-2	4	21	-15	18
CN(CCCNC(=O)c1cc2c(=O)[nH]c3ccccc3c2n1C)Cc1ccccc1	-2	6057	15	11	1.4	-13	6
COc1ccc(-c2nn(-c3ccccc3)cc2C=NNc2ccc3ccccc3n2)cc1OC	x	x	-18	-20	14	x	34
Cc1ccc(C)n1-c1ccc(C(=O)NN=Cc2ccncc2)cc1	x	x	-6	-13	-0.3	x	2
CC(=NNc1cc(N2CCOCC2)nc(C)n1)c1cccc([N+](=O)[O-])c1	x	x	1	11	4.5	x	3
CCCn1c(CCc2ccccc2)nnc1SCC(=O)N1CCOCC1	4	4156	x	x	1.0	-13	-2
CNc1ncnc(Sc2ccc(Cl)cc2)c1[N+](=O)[O-]	0	4519	4	-4	1.3	x	10
NC(=O)[C@@H]1CCCN1C(=O)[C@@H](Cc1cnc[nH]1)NC(=O)[C@@H]1CCC(=O)N1	x	4882	-4	-5	-5.4	4	-2
CCCn1nc(C(=O)NNC(=O)c2cc(S(=O)(=O)NC)ccc2Br)c2ccccc2c1=O	0	u	4	3	6.9	-7	11
Cn1c(-c2cccc([N+](=O)[O-])c2)cnc1NCc1ccc(C#N)cc1	-6	4070	-9	13	4.5	-60	-10
COc1cccc(N2CC(C(=O)Nc3nnc(SCC(=O)N4CCOCC4)s3)CC2=O)c1 (centres undefined)	2	5670	12	8	1.0	-7	5
C=COCCNC(=S)N1CCOCCOCCN(C(=S)NCCOC=C)CCOCCOCC1	1	3328	-4	-7	1.9	8	4
Cc1cc(C)n2c(SCC#N)nnc2n1	-2	6064	x	x	0.4	-6	-1
COc1cccc(-c2cc(C(=O)N3CCN(C(=O)c4ccco4)CC3)[nH]n2)c1	7	4561	12	10	3.7	-10	9
CCN(CC(=O)Nc1ccccc1C(F)(F)F)C(=O)CN1C(=O)NC2(CCCCC2)C1=O	-3	6282	3	-6	1.1	-12	1

Compound activity deposited in PubChem BioAssay by several laboratories.
